A1 inh = inhibitors of the anti-apoptotic protein A1, read as caspase activation; AID 2462; actives 0.066% (n = 330,000); MEF A1-2A-BIM cells, Caspase-Glo 3/7 luminescence, 3 h; percent of clofoctol response, vehicle zero; caspase activation, % (no concentration beside the values);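 active means over half of replicate activation scores above 10%, or exactly half above 10 with the replicate mean above 10; inconclusive means replicate mean below 10 yet half the replicates above 10; inactive means over half of replicates below 10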;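 further: wells of about 30 µL received 50 nL stock; many hits fall short of the cut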
rRNA inh HTS = selective bacterial rRNA inhibition in E. coli; E. coli WT GFP vs humanized-ribosome RFP mutants, fluorescence, 24 h; active compounds read low; DMSO median 0, no signal -100; GFP signal change (wild-type ribosome), % (test concentration not listed); actives 1.6% (n = 350,000);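 active means significant combined selectivity score with lowered wild-type GFP, culture density cut under 30%, mutant RFP and density less affected; inactive means any of these conditions unmet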; further: one replicate is shown; some compounds called inactive have numbers as strong as hits
Calb FLC = affects C. albicans growth with fluconazole; C. albicans CaCi-2 (fluconazole-resistant clinical isolate) + fluconazole, Alamar Blue growth, 48 h; growth inhibition, % (test concentration not listed); actives 0.57% (n = 300,000); AID 1979;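 active means most replicates above 75%; inconclusive means exactly half above 75%; inactive means most below 75%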;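 further: all wells also contain fluconazole at 8 µg/ml as a sub-toxic cotreatment; 0% = median of DMSO wells and 100% = median of geldanamycin control wells; wells of about 8 µL received 7.5 nL stock; the first replicate is given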
Beta cell apopt = blocks beta cell apoptosis; protection from apoptosis, % (test concentration not listed); actives 0.8% (n = 300,000); AID 435005; INS-1E cytokine-induced death, ATP luminescence, 48 h; percent of positive-control rescue, neutral wells zero;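 active means all replicates at 75% or more, or half of them and the mean; inconclusive means half reach 75% but not the mean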;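 further: 0% = cytokine-treated negative control wells and 100% = positive control rescue; higher means more ATP so stronger rescue from cytokine killing; wells of about 40 µL received 100 nL stock; the first replicate is given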
LANA-H2A inh = blocks KSHV LANA binding to histone H2A/H2B; inhibition, % (concentration not given with the values); actives 0.6% (n = 320,000); cell-free LANA-H2A/H2B peptide, fluorescence polarization; in the data active means inhibition mostly above about 10%, no sharp cut-off; inactive means mostly below about 6.7%;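 further: stock transfer was 7.5 nL into about 10 µL; 0% = median of vehicle wells and 100% = median of positive control wells; one replicate is shown; the record names a cut of 25% in any replicate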
ALR H2O2 inh = blocks human ALR sulfhydryl oxidase activity; P55789; purified ALR, DTT oxidation, H2O2 HRP-luminol luminescence; inhibition, % (no concentration beside the values); actives 3.8% (n = 290,000); AID 485317;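 active means mean and each replicate at 75% or more; inconclusive means only one of the two met; inactive means neither met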;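 further: stock transfer was 7.5 nL into about 7.5 µL; 0% = neutral wells and 100% = wells with inactivated enzyme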
Target sequence (P55789 whole entry, looked up): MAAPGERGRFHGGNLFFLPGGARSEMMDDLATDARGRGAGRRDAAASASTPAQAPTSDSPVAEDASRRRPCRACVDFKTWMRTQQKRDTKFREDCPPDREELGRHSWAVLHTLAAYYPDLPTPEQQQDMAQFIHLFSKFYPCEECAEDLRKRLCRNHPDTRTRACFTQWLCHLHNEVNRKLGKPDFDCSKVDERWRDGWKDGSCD
T cruzi repl = blocks replication of Trypanosoma cruzi | inhibition, % (concentration not given with the values) | T. cruzi beta-gal in NIH3T3, luminescence, 90 h | AID 1885 | actives 1.4% (n = 300,000);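 active means mean inhibition across valid replicates above about 55%, limit read from the data; inconclusive means mean below that limit but half or more replicates reach it; inactive means mean below it, under half of replicates reach it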;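 further: signal also drops with host cell toxicity which is not excluded here; 0% = plate median of DMSO wells and 100% = zero luminescence signal; higher percent means less beta-gal luminescence so fewer parasites; stock transfer was 50 nL into about 50 µL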
B2AR ag = agonists of human beta-2 adrenergic receptor inducing internalization | response, % (test concentration not listed) | P07550 | Am2.2-beta2AR cells, FAP receptor internalization, flow cytometry; reference of the scale not given here | AID 504454 | actives 0.43% (n = 340,000);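 active means response above a set limit, near 3 SD of response in nonfluorescent compounds, cut at about 42% in these data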;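 further: stock transfer was 100 nL into about 11 µL; a reference agonist was the positive control; negative values mostly stem from fluorescent compounds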
Target sequence (P07550 whole entry, looked up): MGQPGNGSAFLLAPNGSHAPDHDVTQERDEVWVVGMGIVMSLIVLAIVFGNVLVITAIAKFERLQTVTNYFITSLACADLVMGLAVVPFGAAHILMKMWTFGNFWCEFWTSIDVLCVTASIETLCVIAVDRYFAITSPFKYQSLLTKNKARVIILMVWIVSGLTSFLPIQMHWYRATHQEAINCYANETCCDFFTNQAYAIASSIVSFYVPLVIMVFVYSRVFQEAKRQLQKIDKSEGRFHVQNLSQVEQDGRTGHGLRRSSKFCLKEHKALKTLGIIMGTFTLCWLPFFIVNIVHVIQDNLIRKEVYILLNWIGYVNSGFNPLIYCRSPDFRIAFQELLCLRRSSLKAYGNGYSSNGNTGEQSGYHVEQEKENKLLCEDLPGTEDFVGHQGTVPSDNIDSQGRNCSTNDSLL
rRNA inh HTS OD600 = also measured in rRNA inh HTS; calls as there; OD600 change, %; measured here: OD600 growth;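 optical density of the mix in the first replicate; 0 = DMSO median and -100 = no signal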
rRNA inh HTS RFP = second read-out of rRNA inh HTS, no call of its own (marks repeat the call); RFP signal change, %; measured here: RFP humanized mutant strains;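 first replicate; 0 = DMSO median and -100 = no signal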
* = called active by the depositor. An excerpt; count on the stated rates, not on these rows.

What do the screens show for `CCCn1c(=O)c(C(=O)OCC)c(O)c2cc(Br)ccc21`?
A1 inh: -0.6; Calb FLC: 0; Beta cell apopt: -1; LANA-H2A inh: 1.6; ALR H2O2 inh: 40; T cruzi repl: -26; B2AR ag: 0

How did COc1cc(OC)cc(C(=O)NCC(=O)N2CCN(c3ccc(O)cc3)CC2)c1 do in these assays?
A1 inh: 2.3; rRNA inh HTS: 0; Calb FLC: -21; Beta cell apopt: -1; LANA-H2A inh: -0.4; ALR H2O2 inh: 73; T cruzi repl: 10; B2AR ag: 7; rRNA inh HTS OD600: -3; rRNA inh HTS RFP: 3.2

Results for COc1ccccc1C(=O)NC(=S)Nc1ccccc1N1CCCCC1 ?
A1 inh: 0.2; Calb FLC: 4; LANA-H2A inh: 4.3; ALR H2O2 inh: 4; T cruzi repl: 10; B2AR ag: 2

Results for COc1ccc(NC(=O)COC(=O)Cn2nnc3ccccc32)cc1 ?
A1 inh: -0.6; rRNA inh HTS: 20; Calb FLC: -2; Beta cell apopt: 1; LANA-H2A inh: -4.4; ALR H2O2 inh: -5; T cruzi repl: -5; B2AR ag: 4; rRNA inh HTS OD600: 23; rRNA inh HTS RFP: 1.9

Results for CN(C)C(=O)c1ccc(NC(=O)COC(=O)C2=COCCO2)cc1 ?
A1 inh: -0.2; rRNA inh HTS: 20; Calb FLC: -5; Beta cell apopt: -3; LANA-H2A inh: 0.1; ALR H2O2 inh: -2; T cruzi repl: -5; B2AR ag: 3; rRNA inh HTS OD600: 21; rRNA inh HTS RFP: 4.5

Results for O=C(O)COc1ccc(Br)cc1/C=C1/SC(=O)N(CC(=O)N2CCCC2)C1=O ?
A1 inh: 0.3; Calb FLC: 47; Beta cell apopt: -4; LANA-H2A inh: 7.1; ALR H2O2 inh: 8; T cruzi repl: -7; B2AR ag: -7

How did Cc1ccc2c(c1)N(S(=O)(=O)c1ccc(F)cc1)C(C(C)(C)C)CO2 (centres undefined) do in these assays?
A1 inh: 0.0; Calb FLC: 1; Beta cell apopt: 3; LANA-H2A inh: 1.1; T cruzi repl: 10; B2AR ag: 4

How did COc1ccc(-c2c(-c3ccccc3OC)sc3ccccc23)cc1C=O do in these assays?
A1 inh: -0.6; rRNA inh HTS: 6; Beta cell apopt: 1; LANA-H2A inh: 0.5; ALR H2O2 inh: -10; B2AR ag: -3; rRNA inh HTS OD600: -5; rRNA inh HTS RFP: -3.9

Results for O=C(CCN1C(=O)c2ccccc2C1=O)Nc1ccc2c(c1)OCCO2 ?
A1 inh: 0.4; rRNA inh HTS: 4; Calb FLC: 7; Beta cell apopt: -1; LANA-H2A inh: -5.9; ALR H2O2 inh: -7; T cruzi repl: -13; B2AR ag: -16; rRNA inh HTS OD600: -8; rRNA inh HTS RFP: -0.1

Results for CC1CCCC(NC(=O)COC(=O)c2cc(S(=O)(=O)N3CCOCC3)ccc2F)C1C (centres undefined) ?
A1 inh: 0.4; Beta cell apopt: -2; LANA-H2A inh: -4.7; ALR H2O2 inh: -3; B2AR ag: 2

What do the screens show for `COc1cc2c(cc1OC)CN(CC(=O)Nc1ccc(F)cc1F)CC2`?
A1 inh: -2.1; rRNA inh HTS: 5; Calb FLC: -10; Beta cell apopt: -4; LANA-H2A inh: 3.6; ALR H2O2 inh: 1; T cruzi repl: 6; B2AR ag: 9; rRNA inh HTS OD600: 10; rRNA inh HTS RFP: 3.9

Results for Cc1ccc(Nc2nc(C)cc(C)c2C(N)=O)c(C)c1 ?
A1 inh: 1.1; rRNA inh HTS: 5; Calb FLC: -1; Beta cell apopt: -3; LANA-H2A inh: -1.1; ALR H2O2 inh: 34; T cruzi repl: 0; B2AR ag: 11; rRNA inh HTS OD600: 3; rRNA inh HTS RFP: 2.6

Results for COCCN(Cc1nc(C(c2ccccc2)c2ccccc2)no1)C(C)C ?
A1 inh: 1.2; rRNA inh HTS: 0; Calb FLC: -2; Beta cell apopt: 0; LANA-H2A inh: -3.3; T cruzi repl: -6; B2AR ag: 2; rRNA inh HTS OD600: 2; rRNA inh HTS RFP: 0.7

What do the screens show for `CCOc1ccc(NC(=O)CCSc2ccc3ccccc3n2)cc1`?
A1 inh: -0.1; rRNA inh HTS: 8; Calb FLC: -5; Beta cell apopt: -4; T cruzi repl: 6; B2AR ag: 2; rRNA inh HTS OD600: 21; rRNA inh HTS RFP: -1.8

How did CCn1c(SCC(=O)C(C)(C)C)nnc1-c1cnccn1 do in these assays?
A1 inh: 1.9; Calb FLC: -7; Beta cell apopt: 3; LANA-H2A inh: 0.7; ALR H2O2 inh: 11; T cruzi repl: -12; B2AR ag: 18

How did CCC1(c2ccccc2)NC(=O)N(CC(=O)N(c2ccccc2)C2CCS(=O)(=O)C2)C1=O (centres undefined) do in these assays?
A1 inh: 0.8; rRNA inh HTS: 3; Beta cell apopt: 3; LANA-H2A inh: 2.4; ALR H2O2 inh: -1; B2AR ag: -4; rRNA inh HTS OD600: 7; rRNA inh HTS RFP: -1.8

Results for COc1ccc(/C=N/Nc2nc(Nc3ccccc3)nc(N3CCCCC3)n2)cc1OC ?
A1 inh: 0.1; Calb FLC: 18; Beta cell apopt: 11; LANA-H2A inh: 2.6; ALR H2O2 inh: 98*; T cruzi repl: 22; B2AR ag: 19

What do the screens show for `O=C(O)COc1ccc(/C=C/C(=O)c2ccc(C3CCCCC3)cc2)cc1`?
A1 inh: 0.2; rRNA inh HTS: -17; Calb FLC: 1; Beta cell apopt: 2; LANA-H2A inh: -0.5; T cruzi repl: 13; B2AR ag: 1; rRNA inh HTS OD600: -26; rRNA inh HTS RFP: -9.9

Results for O=C(Cc1ccccc1)Nc1cccc([N+](=O)[O-])c1 ?
A1 inh: -1.1; rRNA inh HTS: 8; Calb FLC: -30; Beta cell apopt: -2; LANA-H2A inh: -0.7; ALR H2O2 inh: -13; T cruzi repl: -4; B2AR ag: 0; rRNA inh HTS OD600: 1; rRNA inh HTS RFP: 1.5

How did CN1CCN(c2ccc(NC(=S)NC(=O)c3cccc4c(Br)cccc34)cc2)CC1 do in these assays?
A1 inh: 0.7; rRNA inh HTS: 6; Calb FLC: -6; Beta cell apopt: 8; LANA-H2A inh: 1.3; ALR H2O2 inh: 7; T cruzi repl: 7; B2AR ag: 23; rRNA inh HTS OD600: 10; rRNA inh HTS RFP: 0.6

What do the screens show for `CCOC(=O)NC1(C(F)(F)F)NC(=O)N(Cc2ccco2)C1=O` (centres undefined)?
A1 inh: 0.0; rRNA inh HTS: 21; Calb FLC: -2; Beta cell apopt: -4; LANA-H2A inh: 0.1; ALR H2O2 inh: -5; T cruzi repl: -16; B2AR ag: 7; rRNA inh HTS OD600: 16; rRNA inh HTS RFP: -5.7

What do the screens show for `CC(=NNC(=O)c1cccc(S(=O)(=O)N2CCCC2)c1)c1ccccc1`?
A1 inh: -0.2; rRNA inh HTS: 6; Beta cell apopt: 2; LANA-H2A inh: 5.2; B2AR ag: 14; rRNA inh HTS OD600: 10; rRNA inh HTS RFP: 0.2

What do the screens show for `COc1ccc(C(=O)Nc2cccc([N+](=O)[O-])c2)cc1Br`?
A1 inh: -1.4; Calb FLC: 5; Beta cell apopt: 9; LANA-H2A inh: -1.1; T cruzi repl: 4; B2AR ag: 3

How did CC1CCCC(NC(=O)C2CCN(S(=O)(=O)N3CCOCC3)CC2)C1C (centres undefined) do in these assays?
A1 inh: 0.3; Calb FLC: -1; Beta cell apopt: -8; LANA-H2A inh: 5.7; ALR H2O2 inh: -3; T cruzi repl: -9; B2AR ag: -4

What do the screens show for `COc1ccc(C(=O)NCC23C=CC(O2)C2C(=O)N(Cc4ccccc4)C(=O)C23)cc1` (centres undefined)?
A1 inh: 0.5; Calb FLC: -4; Beta cell apopt: 14; LANA-H2A inh: 5.5; ALR H2O2 inh: 0; T cruzi repl: -3; B2AR ag: -11

What do the screens show for `O=C(NCCCN1CCOCC1)c1cc2c(s1)CSC2`?
A1 inh: -0.2; Calb FLC: inconclusive; Beta cell apopt: -5; LANA-H2A inh: -0.7; ALR H2O2 inh: 99*; T cruzi repl: 8; B2AR ag: 1

Results for COc1ccc2c(CSc3nc4nc(C)cc(C)n4n3)cc(=O)oc2c1 ?
A1 inh: -0.2; Calb FLC: 5; Beta cell apopt: -6; LANA-H2A inh: -2.5; ALR H2O2 inh: -1; T cruzi repl: 5; B2AR ag: 14

How did COc1cc2c(-c3ccc4[nH]ccc4c3)c(-c3ccc(C#N)cc3)oc(=O)c2cc1OC do in these assays?
A1 inh: 0.8; rRNA inh HTS: -3; Beta cell apopt: 36; LANA-H2A inh: 4.4; ALR H2O2 inh: -2; B2AR ag: 8; rRNA inh HTS OD600: 4; rRNA inh HTS RFP: -6.1

What do the screens show for `Nc1ccc(C(=O)N/N=C/c2ccc(N3CCOCC3)s2)cc1`?
A1 inh: -0.7; rRNA inh HTS: 10; Beta cell apopt: 6; LANA-H2A inh: 5.7; B2AR ag: 0; rRNA inh HTS OD600: 27; rRNA inh HTS RFP: 4.7

How did COc1ccc(C2=NN(c3nc4ccccc4s3)C(=O)C2)cc1 do in these assays?
A1 inh: -0.4; rRNA inh HTS: 5; Calb FLC: 94*; Beta cell apopt: 0; T cruzi repl: -27; B2AR ag: 7; rRNA inh HTS OD600: 5; rRNA inh HTS RFP: 0.9

How did O=S(=O)(Nc1cccc(-c2ccc(N3CCCCCC3)nn2)c1)c1ccccc1F do in these assays?
A1 inh: -0.6; rRNA inh HTS: -8; Calb FLC: 12; Beta cell apopt: -2; LANA-H2A inh: 4.0; ALR H2O2 inh: -5; T cruzi repl: 0; B2AR ag: -7; rRNA inh HTS OD600: -26; rRNA inh HTS RFP: 6.8

Results for CC(=O)COc1cc(C)cc2oc(=O)c(C)c(C)c12 ?
A1 inh: 0.5; Calb FLC: 1; Beta cell apopt: -9; LANA-H2A inh: -1.8; ALR H2O2 inh: 5; T cruzi repl: -3; B2AR ag: -2

How did N#CCC(=O)Nc1ccc(C(=O)NCCc2c[nH]c3ccccc23)cc1 do in these assays?
A1 inh: -0.1; rRNA inh HTS: -5; Calb FLC: -12; Beta cell apopt: 4; LANA-H2A inh: -5.7; ALR H2O2 inh: 98*; T cruzi repl: -13; B2AR ag: 10; rRNA inh HTS OD600: 0; rRNA inh HTS RFP: 2.6

How did Cc1ccc(OCc2nc(C#N)c(NCCCn3ccnc3)o2)cc1 do in these assays?
A1 inh: 0.4; Calb FLC: -4; Beta cell apopt: -8; LANA-H2A inh: -1.4; ALR H2O2 inh: 1; T cruzi repl: -8; B2AR ag: -7

Quoted at random: 2 entries already listed.
What do the screens show for `CCOC(=O)NC1(C(F)(F)F)NC(=O)N(Cc2ccco2)C1=O` (centres undefined)?
A1 inh: 0.0; rRNA inh HTS: 21; Calb FLC: -2; Beta cell apopt: -4; LANA-H2A inh: 0.1; ALR H2O2 inh: -5; T cruzi repl: -16; B2AR ag: 7; rRNA inh HTS OD600: 16; rRNA inh HTS RFP: -5.7

Results for COc1ccc2c(CSc3nc4nc(C)cc(C)n4n3)cc(=O)oc2c1 ?
A1 inh: -0.2; Calb FLC: 5; Beta cell apopt: -6; LANA-H2A inh: -2.5; ALR H2O2 inh: -1; T cruzi repl: 5; B2AR ag: 14

Bioassay records as filed in PubChem.
